# Compound activity from PubChem BioAssay.
# CBX7 AlphaScr = blocks human CBX7 binding to H3K27me3 peptide; AlphaScreen His6-CBX7 / biotin-H3K27me3 peptide binding; hits give low values; 66,000 compounds, 1.1% hits; normalised signal (fraction of DMSO) (test concentration not listed); in the data active = normalised signal below about 0.5;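 note: 100 nL library stock added to about 20 µL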
# Target sequence (O95931 whole entry, looked up): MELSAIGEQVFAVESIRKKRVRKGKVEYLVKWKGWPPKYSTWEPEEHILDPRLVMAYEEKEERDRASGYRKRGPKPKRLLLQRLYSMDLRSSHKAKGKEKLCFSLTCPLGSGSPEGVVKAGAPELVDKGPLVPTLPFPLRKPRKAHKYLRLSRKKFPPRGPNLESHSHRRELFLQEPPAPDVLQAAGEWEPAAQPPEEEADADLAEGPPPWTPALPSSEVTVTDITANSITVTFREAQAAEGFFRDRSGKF
# CBX7 AlphaScr z-score = further read-out of CBX7 AlphaScr, marked with its call; z-score; measured here: z-score of CBX7 signal; some inactives read as strong as hits; reference of the scale not given here;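 same signal on another scale; lower means less binding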
# Starred values were filed as active, the others as inactive. Some of the compounds tested; rates above refer to the full screens.
SMILES,CBX7 AlphaScr,CBX7 AlphaScr z-score
O=C(CCc1nc(-c2ccccc2F)no1)Nc1ccc(C(F)(F)F)cc1,1.04,1.34
O=C(NCCCN1CCOCC1)c1cc(=O)[nH]c2ccc(S(=O)(=O)N3CCCCCC3)cc12,0.991,-0.119
CCCNC(=O)C1CCN(S(=O)(=O)c2cnc[nH]2)CC1,0.852,-1.91
COc1ccccc1C(=O)Nc1cc(-c2nn3c(C)nnc3s2)ccc1C,1,0.0205
Cc1ccc(-c2nc3ccccc3s2)cc1NC(=O)Cc1ccccc1,1.2,1.45
O=C1CC(c2ccc(Cl)cc2)c2cc3c(cc2N1)OCCO3 (configuration not stated),0.743,-2.06
CCOC(=O)c1cc(-c2ccc(OC)cc2)n(CCC(=O)Nc2ccccc2OCC)c1C,0.85,-2.94
CCc1ccc2c(c1)c(=O)c(S(=O)(=O)c1ccc(C)cc1)cn2CC(=O)Nc1cccc(OC)c1,0.952,-0.668
O=C(Nc1ccc2nc3n(c(=O)c2c1)CCCCC3)C1COc2ccccc2O1 (configuration not stated),1.03,0.966
CCOCCCNC(=O)c1c[nH]c2ccc(S(=O)(=O)N(C)c3ccc(C)c(C)c3)cc2c1=O,0.943,-0.533
Cc1cc(C)c(N2C(=O)c3ccc(C(=O)Nc4ccccc4C(=O)O)cc3C2=O)c(C)c1,0.961,-1.15
Cn1c(C(=O)O)c(CC(=O)N2CCN(c3ccc(F)cc3)CC2)c2ccccc21,1.06,0.783
CC(=O)Nc1ccc(Oc2nnc(-c3ccc(C)cc3)c3ccccc23)cc1,0.949,-0.0698
Cc1ccccc1Nc1c(-c2cccnc2)nc2ccccn12,0.901,-1.62
COc1cccc(N2CCN(S(=O)(=O)c3ccc4c(c3)CC(C)N4C(C)=O)CC2)c1 (configuration not stated),0.979,-1.01
COC(=O)c1c(NC(=O)c2ccc(OC)c(OC)c2)sc(C)c1C,1.14,0.344
CN(Cc1ccccc1)C(=O)C1CCN(S(=O)(=O)c2cnc[nH]2)CC1,1.03,0.968
O=S(=O)(Nc1c(Cl)cc(Cl)c2cccnc12)c1ccccc1,1.01,0.168
Fc1ccc(-c2nnc3ccc(NCc4cccnc4)nn23)cc1,1.33,7.37
COc1ccccc1NC(=O)c1c(NCc2ccc(OC)c(OC)c2)sc2c1CCC2,0.951,-0.963

# The list goes on; it opens with the seven that closed the last part.
SMILES,CBX7 AlphaScr,CBX7 AlphaScr z-score
Cc1ccccc1Nc1c(-c2cccnc2)nc2ccccn12,0.901,-1.62
COc1cccc(N2CCN(S(=O)(=O)c3ccc4c(c3)CC(C)N4C(C)=O)CC2)c1 (configuration not stated),0.979,-1.01
COC(=O)c1c(NC(=O)c2ccc(OC)c(OC)c2)sc(C)c1C,1.14,0.344
CN(Cc1ccccc1)C(=O)C1CCN(S(=O)(=O)c2cnc[nH]2)CC1,1.03,0.968
O=S(=O)(Nc1c(Cl)cc(Cl)c2cccnc12)c1ccccc1,1.01,0.168
Fc1ccc(-c2nnc3ccc(NCc4cccnc4)nn23)cc1,1.33,7.37
COc1ccccc1NC(=O)c1c(NCc2ccc(OC)c(OC)c2)sc2c1CCC2,0.951,-0.963
O=C(Cc1ccc(NC2=NC3CS(=O)(=O)CC3S2)cc1)Nc1ccccc1 (configuration not stated),0.994,-0.0637
COC(=O)c1cccc(C(=O)Nc2ccc(C)cc2)n1,1.06,1.55
CCC1CCCCN1CCCNC(=O)CSCc1nc(-c2ccc(OC)c(OC)c2)oc1C (configuration not stated),1.57,5.88
O=C(Nc1ccccc1-c1nc2ccccc2s1)c1ccc(Cl)cc1Cl,0.914,-2.36
O=C(NC1CCCC1)c1ccc2c(c1)N(Cc1ccc(Cl)cc1)C(=O)c1ccccc1S2,0.805,-2.24
O=C(CCc1nc(-c2ccccc2F)no1)NCC1(c2ccccc2)CCCC1,1.13,2.06
CCOC(=O)CNC(=O)c1cc2c(n(-c3ccccc3)c1=O)CC(C)(C)CC2=O,0.983,-0.442
CC(C)(CC(=O)NCc1ccc(Cl)cc1)CC1=NS(=O)(=O)c2ccccc2N1,0.964,-0.411
CCOC(=O)c1ccc(NC(=O)c2cc3c(C)nn(-c4ccccc4)c3s2)cc1,1.05,0.455
COc1ccc(Nc2cc(C(=O)NCC(OC)OC)c3ccccc3n2)cc1,0.834,-1.97
CCOCCn1c(COc2ccc(C(C)(C)C)cc2)nc2ccccc21,1.14,1.36
COC(=O)c1cc(=O)nc2sc(-c3ccccc3)nn12,1.06,0.793
COC(=O)c1c(NC(=O)c2ccccc2Cl)sc2c1CCCCC2,1.35,5.51
CC(C)CCNC(=O)C1CCCN(C(=O)c2cc3sccc3n2C)C1 (configuration not stated),0.88,-3.44
CC(CCc1ccccc1)NC(=O)CN1CCN(Cc2ccc(Cl)cc2)C1=O (configuration not stated),1.04,0.64
Cc1ccc(S(=O)(=O)c2cn(CC(=O)Nc3ccccc3)c3ccc(Cl)cc3c2=O)cc1,0.852,-2.13
Cc1ccc(NC(c2cccc(Cl)c2)c2nnnn2C(C(Oc2ccc(Cl)cc2)n2cncn2)C(C)(C)C)cc1 (configuration not stated),0.746,-4.07
CCOCCCNC(=O)c1cc(Sc2ccc(CC)cc2)nc2ccccc12,1.07,2.49
Cc1cccc(Cn2c(=O)cc(C(=O)NCc3ccccc3Cl)c3ccccc32)c1,0.939,-0.655
CCOc1ccc(NC(=O)CSc2nc(Nc3cc(OC)cc(OC)c3)c3ccccc3n2)cc1,0.981,-0.961

# By substructure, the compounds so far with an aryl thioether with sulfur outside any ring
SMILES,CBX7 AlphaScr,CBX7 AlphaScr z-score
CCOCCCNC(=O)c1cc(Sc2ccc(CC)cc2)nc2ccccc12,1.07,2.49
CCOc1ccc(NC(=O)CSc2nc(Nc3cc(OC)cc(OC)c3)c3ccccc3n2)cc1,0.981,-0.961

# Following part
SMILES,CBX7 AlphaScr,CBX7 AlphaScr z-score
CCCCN(C)S(=O)(=O)c1ccc(C(=O)Nc2sc3c(c2C(=O)OC)CCN(C)C3)cc1,1.02,1.08
CC(CCc1ccccc1)NC(=O)CN1C(=O)COc2ccc(S(=O)(=O)N3CCCC3)cc21 (configuration not stated),1.01,0.472
CCOC(=O)Cc1nnc2c(Nc3ccc(OC)cc3)nc3nonc3n12,1.02,0.0821
Cc1ccc(O)c(-c2cc(-c3ccccc3Cl)no2)c1,1.18,4.41
Cc1csc(NC(=O)CCc2c(C)nc3cc(-c4ccccc4)nn3c2C)n1,1.02,0.504
Cc1cccc(-n2ccnc2SCC(=O)Nc2ccccc2)c1,0.874,-0.126
CCN(CC)CCCNC(=O)c1cnn2c(C(F)(F)F)cc(-c3ccc(C)cc3)nc12,1.01,0.365
O=C(CN1CCOCC1)Nc1c2c(nc3ccccc13)CCCC2,0.983,-0.169
Cc1c(C(=O)NCc2ccc(F)cc2)sc2ncn(CC(=O)N3CCC(C)CC3)c(=O)c12,0.87,-1.39
CCOc1ccc2nc(N3CCC(C(=O)Nc4cccc(F)c4)CC3)sc2c1,1.04,1.58
CCN(CCNS(=O)(=O)c1ccc2c(c1)CCN2C(C)=O)c1ccccc1,1.49,3.58
CCc1ccc(OCc2nc(-c3ccc(OC)cc3)no2)c(Br)c1,1.18,2.15
CC(c1ccccc1)n1c(COc2ccccc2)nc2ccccc21 (configuration not stated),1.03,0.308
CCOC(=O)c1sc2ncnc(Nc3cccc(NC(C)=O)c3)c2c1C,1.03,0.758
Cc1ccc2c(c1)-c1c(cnn1CC(=O)N1CCCCC1C)CO2 (configuration not stated),1.02,0.52
O=C(Nc1ccc2oc(-c3cccnc3)nc2c1)c1sc2ccccc2c1Cl,1.02,0.471
CCCCOc1ccc(N2C(=O)CC(N3CCN(Cc4ccc(Cl)cc4)CC3)C2=O)cc1 (configuration not stated),1.27,2.39
COc1ccc(C)cc1NC(=O)CCC(=O)Nc1ccc2nc(N3CCN(C)CC3)cc(C)c2c1,1.01,0.257
CCOC(=O)CNC(=O)Cn1cnc2c(nnn2Cc2ccc(C)cc2)c1=O,1.09,1.47
FC(F)(F)c1cccc(NCc2cn3cccnc3n2)c1,0.906,-1.12

# Structural class: the compounds so far containing a tert-butyl group
SMILES,CBX7 AlphaScr,CBX7 AlphaScr z-score
CCOCCn1c(COc2ccc(C(C)(C)C)cc2)nc2ccccc21,1.14,1.36
Cc1ccc(NC(c2cccc(Cl)c2)c2nnnn2C(C(Oc2ccc(Cl)cc2)n2cncn2)C(C)(C)C)cc1 (configuration not stated),0.746,-4.07

# Next part.
SMILES,CBX7 AlphaScr,CBX7 AlphaScr z-score
CCC1=Nc2cc(C(=O)NC3CC3)ccc2Sc2ccc(Br)cc21,0.971,-1.51
O=C(CN1CCCN(Cc2ccc(F)cc2Cl)C1=O)NC1CCCCCCC1,0.952,-0.863
O=C(COc1ccc(Cl)cc1)NCc1nnc(SCC(=O)Nc2ccccc2F)o1,1.06,0.631
CCOC(=O)c1cnc2cc(C(F)(F)F)ccc2c1N1CCN(Cc2ccccc2)CC1,0.837,-2.81
CCOc1ccc(C(=O)Nc2ccc(-c3nc4ccc(C)cc4o3)cc2)cc1,1.18,0.735
Cc1cccc(N2CCN(C(=O)c3cccc(NC4=NC5CS(=O)(=O)CC5S4)c3)CC2)c1C (configuration not stated),1.04,0.44
O=C(Nc1ncc(Cc2ccc(Cl)c(Cl)c2)s1)C1CCCCC1,1.06,0.676
CC1=Nc2cc(C(=O)N3CCCC3)ccc2Sc2ccc(Cl)cc21,0.943,-0.685
COc1ccc(CCN2C(=O)CC(Cc3ccc(Cl)cc3)C2=O)cc1OC (configuration not stated),1.05,0.658
CCN(CC)S(=O)(=O)c1ccc2c(c1)N(CC(=O)NC1CCCc3ccccc31)C(=O)CS2 (configuration not stated),1.04,1.44
CCN(CCCNS(=O)(=O)c1ccc2c(c1)CCN2C(C)=O)c1cccc(C)c1,1.14,0.991
CC(C)(CC(N)=O)CC1=NS(=O)(=O)c2ccccc2N1,0.899,-1.16
Cc1ccc(N(C(=O)c2ccc(-n3cnnn3)cc2)C2(C(=O)Nc3ccccc3)CCCCC2)cc1,0.819,-4.9
CCN(CC)c1ccc(NC(=O)c2cnn(-c3ccccc3)c2-n2cccc2)c(C)c1,0.941,-2.36
Cc1cc(C)cc(CC2CC(=O)N(c3ccc(Cl)c(Cl)c3)C2=O)c1 (configuration not stated),1.09,2
COc1ccc(OC)c(CNC(=O)C2CCN(S(C)(=O)=O)CC2)c1,0.996,-0.0636
CCOC(=O)c1cnc2cc(-c3ccc(Cl)cc3)nn2c1C,0.995,-0.0854
O=C(Nc1cccc(F)c1)N1CC=C(n2c(=O)[nH]c3ccccc32)CC1,0.994,-0.234
COCCNC(=O)CCC(=O)Nc1ccc2nc(N3CC(C)CC(C)C3)cc(C)c2c1 (configuration not stated),1.01,0.61
COc1ccc(OC)c(CNC(=O)CCc2nc(-c3ccc(C)cc3)no2)c1,0.965,-0.87
COc1ccccc1-c1cc(C(=O)Nc2c(C)nn(Cc3ccccc3)c2C)no1,0.872,-1.46
Cc1ccc(NC(=O)C2CCCN2S(=O)(=O)c2ccc3c(c2)CCC(=O)N3)c(C)c1 (configuration not stated),0.956,-0.801
CCOc1ccc(-c2nc(-c3ccc(Cl)cc3)no2)cc1OCC,1.05,0.543
Cc1ccc(C)c(Cn2c(C3CC(=O)N(Cc4ccccc4)C3)nc3ccccc32)c1 (configuration not stated),0.699,-1.88
CCOc1ccc(-n2cc(-c3ccccc3)c3c(NCCc4ccccc4)ncnc32)cc1,0.955,-1.15
O=C(NCCCN1CCCC1=O)c1cc(=O)[nH]c2ccc(S(=O)(=O)N3CCCCCC3)cc12,1.07,0.986
CCOc1ccc(NC(=O)CC2NCCNC2=O)cc1 (configuration not stated),1.02,0.395
Cc1ccc(NC(=O)c2sccc2-n2cccc2)c(C)c1,0.962,-1.88
C=CCc1cccc(CNc2nc3ccccc3n2CCN2CCOCC2)c1O,0.998,-0.0649
